Tau FP inhib = tau fibrillization inhibition (FP) | P10636 | K18 P301L tau heparin fibrillization, Alexa594 FP, 6 h | Potency, µM (highest dose often 57.7 µM), inactives show at the top dose activity, negative = inhibition, usual class: inhibitors | 280,000 compounds, 0.39% hits; also: potency is read from the fitted curve at half-maximal effect; % is scaled to controls: 0 for no effect and ±100 for the full control effect; nearly all actives have a fitted effect of over 55% in size
Target sequence (P10636 561-689 P618L limits assumed): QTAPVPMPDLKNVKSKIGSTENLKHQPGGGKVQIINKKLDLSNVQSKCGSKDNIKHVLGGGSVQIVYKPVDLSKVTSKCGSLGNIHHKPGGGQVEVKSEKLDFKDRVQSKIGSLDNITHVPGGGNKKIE
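Quantitative HTS format: compounds meet 15 uM recombinant K18 P301L tau and Alexa 594-tau tracer in 100 mM sodium acetate pH 7; 20 uM heparin triggers fibrillization at 37 C over 6 hr; FP gives the signal.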
TRb-SRC2 inh = inhibitors of human thyroid hormone receptor beta-SRC2 interaction; TRbeta-SRC2 peptide binding, fluorescence polarization; receptor liganded with 1 µM T3; Potency, µM (top dose mostly 106 µM), for the others: top-dose activity change, negative = inhibition, most hits filed as inhibitors; 280,000 compounds, 0.065% hits; AID 1469;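 also: potency is read from the fitted curve at half-maximal effect; plate controls were bound peptide for no effect and peptide without receptor for full effect; nearly all actives have a fitted effect of over 50% in size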
Target sequence (P10828 whole entry, looked up): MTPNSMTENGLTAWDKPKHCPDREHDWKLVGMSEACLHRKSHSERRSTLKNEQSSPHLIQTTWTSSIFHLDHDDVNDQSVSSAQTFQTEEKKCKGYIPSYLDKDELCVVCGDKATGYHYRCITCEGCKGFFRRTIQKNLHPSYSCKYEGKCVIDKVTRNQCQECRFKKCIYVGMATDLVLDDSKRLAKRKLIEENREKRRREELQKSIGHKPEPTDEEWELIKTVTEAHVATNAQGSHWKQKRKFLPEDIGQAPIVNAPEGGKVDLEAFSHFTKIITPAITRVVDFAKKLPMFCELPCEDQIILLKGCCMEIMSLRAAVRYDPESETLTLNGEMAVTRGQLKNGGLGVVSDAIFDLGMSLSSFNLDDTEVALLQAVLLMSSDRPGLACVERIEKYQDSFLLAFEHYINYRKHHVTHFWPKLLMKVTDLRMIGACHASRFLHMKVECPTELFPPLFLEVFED
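Fluorescence polarization of 20 nM Texas Red SRC2 peptide with 0.6 uM human TRb ligand-binding domain, in Tris buffer with 1uM T3 and 5% DMSO. Incubated 5 hr ambient; normalized to unbound and bound controls.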
CBFb-RUNX1 inh = CBF-beta/RUNX1 interaction disruption; Q01196+Q13951; AlphaScreen CBFb-His/RUNX1-biotin binding, biochemical; Potency, µM (highest dose often 59.8 µM), for the others: at the top dose activity, negative = inhibition, hits mostly inhibitors; 230,000 tested, under 10 active; also: % of control where 0% means no effect
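Bead-based AlphaScreen assay; binding partners His-tagged CBF-beta and biotinylated RUNX1 at 30 nM each. Compound exposure 15 min after a 20-min protein preincubation; bead step 90 min; all steps at room temperature.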
TexasRed fluor = counter-screen for TRb-SRC2 inhibitors: fluorescence interference; TRb/SRC2 Texas Red total fluorescence interference; 280,000 compounds, 0.29% hits; Potency, µM (titrated, usually from 106 µM), without a hit: at the top dose fluorescence change, negative = quenching; active = well fitted curve in either direction with a large enough effect; inconclusive = small, poorly fitted or top-dose-only effect; also: potency is read from the fitted curve at half-maximal effect; % is scaled to controls: 0 for no effect and ±100 for the full control effect
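Human TRb ligand-binding domain at 0.6 uM with 20 nM Texas Red SRC2 peptide in Tris buffer containing 1 uM T3 and 5% DMSO, incubated with compound 5 h at ambient temperature. Total fluorescence (555/632 nm) calculated as parallel + 2 × perpendicular.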
Epigenetic reg = epigenetic control regulation, reporter derepression; murine LDR cells, GFP reporter derepression, 30 h; Potency, µM (highest dose often 53.9 µM), for the others: top-dose GFP activation, usual class: activators; 280,000 compounds, 0.2% hits; AID 1865; also: potency is read from the fitted curve at half-maximal effect; % of control where 0% means no effect; nearly all actives have a fitted effect of over 60% in size
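Murine LDR cells carrying a silenced, genomically integrated CMV-driven GFP reporter were exposed to compound for 30 hours at 37 C. After PBS washes, GFP-positive cells (20–120 um objects) were counted by laser-scanning microplate cytometry.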
Tau fluor counter = counter-screen for tau fibril formation inhibitors; tau K18 P301L (four-repeat tau fragment) Alexa594 fluorescence, heparin fibrillization; Potency, µM (top dose mostly 57.7 µM), inactives show at the highest dose activity change, negative = decrease; 280,000 compounds, 0.93% hits; AID 1463; also: potency is read from the fitted curve at half-maximal effect; % is scaled to controls: 0 for no effect and ±100 for the full control effect; nearly all actives have a fitted effect of over 55% in size
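Human K18 P301L tau (15 uM unlabeled plus 0.24 uM Alexa 594-labeled, final) in 100 mM sodium acetate pH 7 was mixed with compound and 20 uM heparin and incubated 6 hr at 37 C.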
GLA spleen mod = inhibitors or activators of human alpha-galactosidase in spleen homogenate. Potency, µM (titrated, usually from 80 µM), without a hit: at the top dose activity change, negative = inhibition, hits mostly inhibitors. P06280. 240,000 compounds, 0.008% hits. AID 2107. human spleen homogenate, 4MU-alpha-Gal fluorescence, 40 min;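 also: potency is read from the fitted curve at half-maximal effect; 0% = enzyme with vehicle and -100% = no enzyme basal signal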
Target sequence (P06280 32-429 limits assumed): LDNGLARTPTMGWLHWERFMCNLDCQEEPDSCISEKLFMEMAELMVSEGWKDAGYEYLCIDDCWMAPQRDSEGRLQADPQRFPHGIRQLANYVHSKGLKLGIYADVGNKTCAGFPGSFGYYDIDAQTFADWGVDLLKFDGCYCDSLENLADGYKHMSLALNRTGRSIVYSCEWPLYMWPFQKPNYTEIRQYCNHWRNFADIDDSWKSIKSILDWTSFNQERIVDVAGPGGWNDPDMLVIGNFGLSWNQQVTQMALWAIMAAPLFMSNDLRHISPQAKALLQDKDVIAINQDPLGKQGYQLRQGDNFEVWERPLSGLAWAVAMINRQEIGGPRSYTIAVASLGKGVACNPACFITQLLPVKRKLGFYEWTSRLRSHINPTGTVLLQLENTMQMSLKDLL
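Inhibition or activation of alpha-galactosidase in human spleen homogenate is scored by 4-MU fluorescence after 40 min at 37C, pH 5.0, with 1 mM substrate. AC50s come from concentration-response fitted to the Hill equation.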
An asterisk follows results filed as active; u = inconclusive; x = no result given; & = joins results of further samples; [ ] = another dose, or the depositor's remark. Unless noted, calls follow the shape of the dose curve; as a rule, active = well fitted curve in the direction sought with a large enough effect; inconclusive = small, poorly fitted or top-dose-only effect, or another doubt; inactive = no such curve, though single readings can be large; an effect the other way counts as inactive or inconclusive. Not all compounds are listed (hit frequency here may not be typical).

entry	mol	Tau FP inhib	TRb-SRC2 inh	CBFb-RUNX1 inh	TexasRed fluor
1	COC(=O)C1=C(C)NC(C)=C(C(=O)OC(C)C)[C@H]1c1cccc2nonc12	x	-3.1%[53 µM]	12.9%[21.7 µM]	-1.9%[53 µM]
2	CC1=C(C(=O)OCc2ccccc2)C(/C=C/c2ccccc2)NC(=S)N1 (stereo not given)	-8.8%	-10.3%	-15.1%	1.9%
3	COC(=O)c1c(-c2ccccc2)csc1NC1=NS(=O)(=O)c2ccccc21	3.9%	-0.9%	u	-1.3%
4	COc1ccc(/C=C2\CCCc3c2nc2ccc(C)cc2c3C(=O)O)cc1O	12.5%	-7.6%	5.7%	-3.1%
5	Cc1cc(-c2csc(NC(=O)c3ccc(=O)[nH]c3)n2)c(C)n1Cc1ccco1	u	4.4%	u	u
6	CCOC(=O)/C(C#N)=C1\Nc2ccccc2N=C1N(CC(C)C)CC(C)C	-6.7%	5.5%	1.7%	-4.8%
7	COc1ccc(C(=O)NCc2nnc(SCC(=O)N3CCC(C)CC3)o2)cc1	1.9%	-2.9%	13.4%	-1.4%
8	O=[N+]([O-])c1ccc(COc2ncnc3ccccc23)cc1	-7.0%	-2.6%	-5.1%	1.4%
9	CCOC(=O)C1=NN(c2ccccc2)C2C(=O)N(c3ccccc3OC)C(=O)C12 (stereo not given)	-7.2%	0.7%	21.7%	1.1%
10	O=C(Nc1ccc2c(c1)C(=O)NC2=O)c1ccc2ncsc2c1	-8.7%	11.4%	14.5%	-1.6%
11	COc1ccccc1N1CCN(c2nc(C)nc3c2oc2ccccc23)CC1	-14.5%	-10.9%	-3.4%	-4.2%
12	C/C(=N\NC(=O)c1ccc(NS(=O)(=O)c2cccs2)cc1)c1ccc2ccccc2c1	-3.4%	-7.7%	8.9%	-2.3%
13	CCN(C(=O)c1cc2c(=O)[nH]c3ccc(C)cc3c2s1)c1cccc(C)c1	-1.8%	-4.0%	3.9%	-1.3%
14	C=CCn1c(COc2ccc(Cl)cc2)nnc1SCC(=O)Nc1ccc(S(N)(=O)=O)cc1	u	-3.5%	-8.4%	-2.1%
15	Cc1ccc(N(CC(=O)NCc2ccccc2Cl)S(=O)(=O)c2cccs2)cc1	0.4%	-3.7%	2.8%	-1.2%

entry	Epigenetic reg	Tau fluor counter	GLA spleen mod
1	2.4%[16.9 µM]	x	3.3%[29.1 µM]
2	0.0%	u	4.2%
3	0.0%	-0.6%	15.1%
4	0.0%	-9.4%	-7.7%
5	3.2%	u	-3.6%
6	-2.0%	-14.4%	5.3%
7	-0.4%	0.7%	7.8%
8	-0.3%	-7.7%	2.2%
9	-1.3%	-10.8%	2.0%
10	-3.6%	-8.6%	8.8%
11	-0.6%	-25.7%	-6.2%
12	-1.9%	6.8%	-1.9%
13	3.0%	-10.6%	-4.8%
14	-4.8%	-8.9%	3.7%
15	0.8%	-22.9%	1.9%

The list goes on:
entry	mol	Tau FP inhib	TRb-SRC2 inh	CBFb-RUNX1 inh	TexasRed fluor
16	Cc1nn(Cc2cccc(Oc3ccccc3)c2)c(C)c1NC(=O)NC12CC3CC(CC(C3)C1)C2	-3.5%	-7.7%	-7.4%	-1.2%
17	CCCc1nc(NC2CCCCC2)c(C#N)c2c1COC(C)(C)C2	-1.5%	-2.9%	8.4%	1.9%
18	CC1=C(C(=O)OCc2ccccc2)C(c2cccnc2)n2nnnc2N1 (stereo not given)	-8.0%	2.3%	1.0%	1.5%
19	COc1ccc(C2NC(=O)NC(C)=C2C(=O)Nc2cc(C)ccc2C)cc1OC (stereo not given)	8.6%	7.1%	1.0%	-1.4%
20	Cc1ccc(CNC(=O)c2cn(C3CCCCC3)c(=O)c3c2c2ccccc2n3C)o1	-1.7%	-0.1%	-7.3%	0.8%
21	COc1ccc(-c2cc([C@H]3[C@H]4C=CC[C@@H](C)[C@@H]4C(=O)N3Cc3ccccc3)ccc2F)cc1OC	7.8%	-7.1%	-4.2%	0.1%
22	CCOC(=O)c1cc(C#N)c(N2CCN(C)CC2)nc1-c1ccccc1	2.9%	-5.3%	-3.6%	-4.3%
23	O=c1[nH]c2ccc(Cl)cc2c(-c2ccccc2)c1N1CCN(CCO)CC1	-2.5%	-12.3%	3.6%	-6.4%
24	Cn1c(SCC(=O)Nc2nc3c(s2)CCCC3)nnc1-c1ccccc1	2.8%	-9.9%	0.0%	-0.4%
25	CC1=C(C(=O)OCc2ccccc2)C(c2ccc(C(F)(F)F)cc2)NC(=O)N1CCCCCC(=O)O (stereo not given)	8.1%&-7.2%	-3.8%&0.2%	-7.6%[2.36 µM]	-0.9%&-1.8%
26	CC(C)CCNCC(O)CON=C1c2ccccc2-c2ccccc21 (stereo not given)	0.5%	2.1%	-8.7%	0.3%
27	COC(=O)c1c(NC(=O)CSc2nnnn2-c2ccccc2)sc2c1CCC(C)C2 (stereo not given)	0.2%	0.8%	5.2%	3.5%
28	N#CCCn1cc(/C=C2\NC(=S)N(c3ccccc3)C2=O)c(-c2ccc(F)cc2)n1	14.3%	-1.6%	1.8%	-0.6%
29	O=C(CSc1nnc(-c2ccncc2)n1Cc1ccco1)N1c2ccccc2Sc2ccc(Cl)cc21	10.9%	0.9%	-3.0%	-4.7%
30	COc1cc(NS(=O)(=O)c2ccc(N/C=C(\C#N)c3nc4cc(Cl)ccc4o3)cc2)nc(OC)n1	-3.2%	0.0%	-21.5%	-2.0%
31	Cc1c(C=O)c(C=O)c(C)n1Cc1ccccc1	-7.4%	-20.5%	6.6%	2.1%
32	CSc1ccc(-c2nc(CN(C)C3CCOC3)c(C)o2)cc1 (stereo not given)	-1.6%	3.6%	0.6%	0.7%
33	CC(=O)c1cc(-c2ccccc2)n(CC(=O)N2CCN(C3CCCC3)CC2)c1C	7.1%	-7.3%	5.4%	-3.4%

entry	Epigenetic reg	Tau fluor counter	GLA spleen mod
16	-1.0%	-1.1%	0.2%
17	7.7%	-4.5%	-7.5%
18	-2.0%	-1.5%	5.2%
19	-3.5%	0.5%	0.4%
20	-0.3%	-22.1%	6.0%
21	2.9%	-9.1%	-2.4%
22	-2.3%	-2.2%	-4.8%
23	-1.2%	-4.4%	-1.3%
24	1.0%	-7.3%	18.7%
25	2.6%&-0.2%	4.3%&-6.7%	-1.3%&8.3%
26	4.7%	-10.8%	0.5%
27	-1.1%	-15.6%	-3.8%
28	-0.7%[10.1 µM]	u	-1.5%
29	-0.8%	-10.4%	-2.9%
30	2.6%	-12.6%	-8.8%
31	-6.8%	-3.2%	4.9%
32	3.5%	-5.0%	2.9%
33	-1.1%	-2.2%	29.1%

11 neighbouring records already listed, quoted:
entry	mol	Tau FP inhib	TRb-SRC2 inh	CBFb-RUNX1 inh	TexasRed fluor
20	Cc1ccc(CNC(=O)c2cn(C3CCCCC3)c(=O)c3c2c2ccccc2n3C)o1	-1.7%	-0.1%	-7.3%	0.8%
21	COc1ccc(-c2cc([C@H]3[C@H]4C=CC[C@@H](C)[C@@H]4C(=O)N3Cc3ccccc3)ccc2F)cc1OC	7.8%	-7.1%	-4.2%	0.1%
22	CCOC(=O)c1cc(C#N)c(N2CCN(C)CC2)nc1-c1ccccc1	2.9%	-5.3%	-3.6%	-4.3%
23	O=c1[nH]c2ccc(Cl)cc2c(-c2ccccc2)c1N1CCN(CCO)CC1	-2.5%	-12.3%	3.6%	-6.4%
24	Cn1c(SCC(=O)Nc2nc3c(s2)CCCC3)nnc1-c1ccccc1	2.8%	-9.9%	0.0%	-0.4%
25	CC1=C(C(=O)OCc2ccccc2)C(c2ccc(C(F)(F)F)cc2)NC(=O)N1CCCCCC(=O)O (stereo not given)	8.1%&-7.2%	-3.8%&0.2%	-7.6%[2.36 µM]	-0.9%&-1.8%
26	CC(C)CCNCC(O)CON=C1c2ccccc2-c2ccccc21 (stereo not given)	0.5%	2.1%	-8.7%	0.3%
27	COC(=O)c1c(NC(=O)CSc2nnnn2-c2ccccc2)sc2c1CCC(C)C2 (stereo not given)	0.2%	0.8%	5.2%	3.5%
28	N#CCCn1cc(/C=C2\NC(=S)N(c3ccccc3)C2=O)c(-c2ccc(F)cc2)n1	14.3%	-1.6%	1.8%	-0.6%
29	O=C(CSc1nnc(-c2ccncc2)n1Cc1ccco1)N1c2ccccc2Sc2ccc(Cl)cc21	10.9%	0.9%	-3.0%	-4.7%
30	COc1cc(NS(=O)(=O)c2ccc(N/C=C(\C#N)c3nc4cc(Cl)ccc4o3)cc2)nc(OC)n1	-3.2%	0.0%	-21.5%	-2.0%

entry	Epigenetic reg	Tau fluor counter	GLA spleen mod
20	-0.3%	-22.1%	6.0%
21	2.9%	-9.1%	-2.4%
22	-2.3%	-2.2%	-4.8%
23	-1.2%	-4.4%	-1.3%
24	1.0%	-7.3%	18.7%
25	2.6%&-0.2%	4.3%&-6.7%	-1.3%&8.3%
26	4.7%	-10.8%	0.5%
27	-1.1%	-15.6%	-3.8%
28	-0.7%[10.1 µM]	u	-1.5%
29	-0.8%	-10.4%	-2.9%
30	2.6%	-12.6%	-8.8%

Screening data (PubChem)
